FGF22 binding: shifts melting point of recombinant human FGF22 | calls only at 9.99 µM | recombinant FGF22 thermal shift, SYPRO orange fluorescence; percent of sucrose octasulfate shift, DMSO zero | Q9HCT0 | 340,000 tested, 1.5% active;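 active = melting point raised past a set limit in the mean and every replicate; inconclusive = no clear call; three in four hits are not shown here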
Target sequence (Q9HCT0 whole entry, looked up): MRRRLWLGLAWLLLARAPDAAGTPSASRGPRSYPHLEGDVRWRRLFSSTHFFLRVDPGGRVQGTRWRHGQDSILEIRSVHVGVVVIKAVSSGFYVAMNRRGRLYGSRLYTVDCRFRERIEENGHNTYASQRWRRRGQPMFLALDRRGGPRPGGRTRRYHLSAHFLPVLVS
T cruzi repl: T. cruzi replication inhibition. T. cruzi beta-gal in NIH3T3, luminescence, 90 h. inhibition, % (no concentration beside the values). 300,000 tested, 1.4% active. AID 1885;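 active = mean inhibition across valid replicates above about 55%, limit read from the data; inconclusive = mean below that limit but half or more replicates reach it; inactive = mean below it, under half of replicates reach it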;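 also: signal also drops with host cell toxicity which is not excluded here; 0% = plate median of DMSO wells and 100% = zero luminescence signal; higher percent means less beta-gal luminescence so fewer parasites; stock transfer was 50 nL into about 50 µL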
rRNA inh HTS: selective bacterial rRNA inhibition in E. coli; E. coli WT GFP vs humanized-ribosome RFP mutants, fluorescence, 24 h; stronger effect = lower value; DMSO median 0, no signal -100; GFP signal change (wild-type ribosome), % (no concentration beside the values); 350,000 tested, 1.6% active;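 active = significant combined selectivity score with lowered wild-type GFP, culture density cut under 30%, mutant RFP and density less affected; inactive = any of these conditions unmet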; also: one replicate is shown; some compounds called inactive have numbers as strong as hits
ALR inh: human ALR oxidase inhibition via reduced H2O2. inhibition, % (test concentration not listed). P55789. 290,000 tested, 3.8% active. purified ALR, DTT oxidation, H2O2 HRP-luminol luminescence;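 active = mean and each replicate at 75% or more; inconclusive = only one of the two met; inactive = neither met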;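 also: stock transfer was 7.5 nL into about 7.5 µL; 0% = neutral wells and 100% = wells with inactivated enzyme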
Target sequence (P55789 whole entry, looked up): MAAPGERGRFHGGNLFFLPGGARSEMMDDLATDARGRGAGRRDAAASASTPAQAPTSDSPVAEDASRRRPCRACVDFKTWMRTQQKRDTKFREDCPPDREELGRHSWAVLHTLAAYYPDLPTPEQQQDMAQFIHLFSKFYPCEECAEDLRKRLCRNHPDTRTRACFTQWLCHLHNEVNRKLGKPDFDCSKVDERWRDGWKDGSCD
Beta cell apopt: beta cell apoptosis inhibition | INS-1E cytokine-induced death, ATP luminescence, 48 h; percent of positive-control rescue, neutral wells zero | protection from apoptosis, % (no concentration beside the values) | 300,000 tested, 0.8% active | AID 435005;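 active = all replicates at 75% or more, or half of them and the mean; inconclusive = half reach 75% but not the mean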;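 also: 0% = cytokine-treated negative control wells and 100% = positive control rescue; higher means more ATP so stronger rescue from cytokine killing; wells of about 40 µL received 100 nL stock; the first replicate is given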
Calb FLC: C. albicans growth modulation with fluconazole; C. albicans CaCi-2 (fluconazole-resistant clinical isolate) + fluconazole, Alamar Blue growth, 48 h; growth inhibition, % (no concentration beside the values); 300,000 tested, 0.57% active; AID 1979;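 active = most replicates above 75%; inconclusive = exactly half above 75%; inactive = most below 75%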;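 also: all wells also contain fluconazole at 8 µg/ml as a sub-toxic cotreatment; 0% = median of DMSO wells and 100% = median of geldanamycin control wells; wells of about 8 µL received 7.5 nL stock; the first replicate is given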
RanGTP-Impb inh: inhibitors of RanGTP-importin-beta interaction, primary screen, biochemical, FRET, CFP-Ran, YFP-importin-beta, homogeneous | AID 2216 | cell-free CFP-Ran/YFP-importin-beta FRET ratio | inhibition, % (concentration not given with the values) | 300,000 tested, 1.1% active;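 active = most replicates above 15%; inconclusive = exactly half above 15%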;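 also: 0% = DMSO wells and 100% = Ran loaded with GDP instead of GTP; wells of about 40 µL received 100 nL stock; the first replicate is given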
MLL AF4-AF9 inh: blocks AF4 peptide binding to human AF9 | inhibition, % at 10 µM | 350,000 tested, 0.47% active | AlphaScreen, biotin-AF4 peptide binding to FLAG-AF9;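 active = every replicate reaching a set inhibition limit, whatever the replicate mean, cut at about 25% in these data; inconclusive = mean inhibition reaches that limit but some replicates miss it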;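 also: 0% = plate neutral control median and 100% = total signal loss; the record names both 10 and 1 µM as test concentration; the first replicate is given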
Target sequence (P42568 whole entry, looked up): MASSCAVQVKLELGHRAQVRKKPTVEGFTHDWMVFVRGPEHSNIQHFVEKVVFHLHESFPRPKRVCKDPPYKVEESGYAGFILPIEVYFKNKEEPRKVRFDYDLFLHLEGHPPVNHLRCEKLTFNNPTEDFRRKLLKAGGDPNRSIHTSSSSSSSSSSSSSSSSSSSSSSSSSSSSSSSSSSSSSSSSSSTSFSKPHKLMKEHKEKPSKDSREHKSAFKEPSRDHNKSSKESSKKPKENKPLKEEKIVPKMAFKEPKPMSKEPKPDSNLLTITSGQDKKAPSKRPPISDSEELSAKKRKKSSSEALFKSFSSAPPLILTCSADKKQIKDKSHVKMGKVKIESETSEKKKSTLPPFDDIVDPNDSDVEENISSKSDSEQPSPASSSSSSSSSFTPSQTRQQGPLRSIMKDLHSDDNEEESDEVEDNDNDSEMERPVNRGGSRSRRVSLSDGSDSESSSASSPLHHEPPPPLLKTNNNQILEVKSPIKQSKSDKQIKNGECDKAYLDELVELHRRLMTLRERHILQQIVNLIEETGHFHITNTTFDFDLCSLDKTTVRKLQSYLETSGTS
rRNA inh HTS OD600: further read-out of rRNA inh HTS, marked with its call; OD600 change, %; measured here: OD600 growth;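 optical density of the mix in the first replicate; 0 = DMSO median and -100 = no signal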
rRNA inh HTS RFP: second read-out of rRNA inh HTS, no call of its own (marks repeat the call); RFP signal change, %; measured here: RFP humanized mutant strains;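 first replicate; 0 = DMSO median and -100 = no signal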
* marks the source's active call; other numbers are inactive results.

A first look:
How did CCCCn1c(N)c(NCCC(C)C)c(=O)[nH]c1=O do in these assays?
FGF22 binding: inactive; rRNA inh HTS: 7; ALR inh: 0; Beta cell apopt: 8; MLL AF4-AF9 inh: -9.7; rRNA inh HTS OD600: -11; rRNA inh HTS RFP: 14

How did COC(=O)/C=C/c1ccc(-n2cncn2)cc1 do in these assays?
T cruzi repl: -10; rRNA inh HTS: 1; ALR inh: -7; Beta cell apopt: -1; Calb FLC: 11; RanGTP-Impb inh: -2.3; MLL AF4-AF9 inh: -1.2; rRNA inh HTS OD600: 6; rRNA inh HTS RFP: -0.1

Main list, from the start:
How did CCCCn1c(N)c(NCCC(C)C)c(=O)[nH]c1=O do in these assays?
FGF22 binding: inactive; rRNA inh HTS: 7; ALR inh: 0; Beta cell apopt: 8; MLL AF4-AF9 inh: -9.7; rRNA inh HTS OD600: -11; rRNA inh HTS RFP: 14

How did COC(=O)/C=C/c1ccc(-n2cncn2)cc1 do in these assays?
T cruzi repl: -10; rRNA inh HTS: 1; ALR inh: -7; Beta cell apopt: -1; Calb FLC: 11; RanGTP-Impb inh: -2.3; MLL AF4-AF9 inh: -1.2; rRNA inh HTS OD600: 6; rRNA inh HTS RFP: -0.1

Results for CCN(CC)S(=O)(=O)c1ccc(C(=O)NCCN2C(=O)S/C(=C\c3cccnc3)C2=O)cc1 ?
FGF22 binding: inactive; T cruzi repl: 6; rRNA inh HTS: 8; ALR inh: -2; Beta cell apopt: 1; Calb FLC: -3; RanGTP-Impb inh: 2.3; MLL AF4-AF9 inh: 0.3; rRNA inh HTS OD600: 10; rRNA inh HTS RFP: 15

How did CCCC(=O)NC(c1ccco1)c1cc(Cl)c2cccnc2c1O (centres undefined) do in these assays?
T cruzi repl: 62*; ALR inh: -21; Beta cell apopt: 82*; Calb FLC: 2; RanGTP-Impb inh: 1.9

Results for COc1ccc(C(=O)NC(C)CCc2ccccc2)c(O)c1 (centres undefined) ?
FGF22 binding: inactive; T cruzi repl: -6; rRNA inh HTS: -53; ALR inh: 0; Beta cell apopt: 7; Calb FLC: 5; RanGTP-Impb inh: 6.7; MLL AF4-AF9 inh: -1.7; rRNA inh HTS OD600: -82; rRNA inh HTS RFP: -19

What do the screens show for `Nc1c(N(CCC2=CCCCC2)C(=O)Cc2ccccc2F)c(=O)[nH]c(=O)n1Cc1ccccc1`?
FGF22 binding: inactive; rRNA inh HTS: 5; ALR inh: 2; Beta cell apopt: -13; MLL AF4-AF9 inh: 6.7; rRNA inh HTS OD600: 3; rRNA inh HTS RFP: 0.7

What do the screens show for `COc1cc(OC)cc(C(=O)N2CCN(c3ncccn3)CC2)c1`?
T cruzi repl: 9; rRNA inh HTS: 2; ALR inh: -30; Beta cell apopt: -10; Calb FLC: -20; RanGTP-Impb inh: inconclusive; rRNA inh HTS OD600: 0; rRNA inh HTS RFP: -1.9

Results for CC(=O)C1C(c2ccc(OC(F)F)cc2)NC(=O)NC1(O)C(F)(F)F (centres undefined) ?
FGF22 binding: inactive; T cruzi repl: 2; rRNA inh HTS: 4; ALR inh: -1; Beta cell apopt: -7; Calb FLC: -2; RanGTP-Impb inh: inconclusive; MLL AF4-AF9 inh: -8.6; rRNA inh HTS OD600: 8; rRNA inh HTS RFP: 0.4

Results for COc1cc(CCC(=O)Nc2ccncc2Cl)cc(OC)c1OC ?
FGF22 binding: inactive; T cruzi repl: -17; rRNA inh HTS: 9; ALR inh: -1; Beta cell apopt: 0; Calb FLC: 4; RanGTP-Impb inh: -2.3; MLL AF4-AF9 inh: 1.3; rRNA inh HTS OD600: 5; rRNA inh HTS RFP: -1.6

What do the screens show for `CC(C)c1nccn1S(=O)(=O)c1cc([N+](=O)[O-])ccc1Cl`?
T cruzi repl: -10; ALR inh: -7; Beta cell apopt: -1; Calb FLC: 1; RanGTP-Impb inh: -0.2

What do the screens show for `CC(C)C[C@H](NC(=O)OC(C)(C)C)C(=O)N[C@@H](CO)[C@H](O)[C@@H]1C[C@@H]1C(=O)N1CCCC1`?
FGF22 binding: inactive; T cruzi repl: -9; rRNA inh HTS: 12; ALR inh: 1; Beta cell apopt: -12; Calb FLC: 10; RanGTP-Impb inh: 0.9; MLL AF4-AF9 inh: 0.1; rRNA inh HTS OD600: 1; rRNA inh HTS RFP: 12

How did CC(=O)N1CCc2cc(S(=O)(=O)NCCC(=O)NC3CCCCCC3)ccc21 do in these assays?
FGF22 binding: inactive; T cruzi repl: -9; rRNA inh HTS: 3; ALR inh: -1; Beta cell apopt: 3; Calb FLC: 6; RanGTP-Impb inh: 2.2; MLL AF4-AF9 inh: 0.1; rRNA inh HTS OD600: 2; rRNA inh HTS RFP: -1.2

How did CC(C)(C)NC(=O)C(c1ccncc1)N(C(=O)Cn1nnc(-c2cccs2)n1)C1CCCCC1 (centres undefined) do in these assays?
T cruzi repl: -2; ALR inh: 11; Beta cell apopt: 1; Calb FLC: -15; RanGTP-Impb inh: -2.6

Results for COc1ccc(C)cc1NC(=O)CSc1nc(=O)n(CCCN2CCOCC2)c2c1CCCC2 ?
FGF22 binding: inactive; T cruzi repl: 0; rRNA inh HTS: -2; ALR inh: -3; Calb FLC: -1; RanGTP-Impb inh: 2.7; MLL AF4-AF9 inh: 2.2; rRNA inh HTS OD600: -1; rRNA inh HTS RFP: 4.2

Results for Cc1ccc(C)c(Sc2ccc(NC(=O)CCl)cc2)c1 ?
FGF22 binding: inactive; T cruzi repl: 40; rRNA inh HTS: -41; ALR inh: 86*; Beta cell apopt: 1; Calb FLC: -10; RanGTP-Impb inh: 3.1; MLL AF4-AF9 inh: -1.5; rRNA inh HTS OD600: -51; rRNA inh HTS RFP: 3.8

What do the screens show for `Cc1ccc(NC(=O)NC(=O)N(C(C)C)S(=O)(=O)c2ccc(C)cc2)cc1`?
FGF22 binding: inactive; T cruzi repl: -11; rRNA inh HTS: 9; ALR inh: 3; Beta cell apopt: -7; Calb FLC: 1; RanGTP-Impb inh: -4.8; MLL AF4-AF9 inh: 0.5; rRNA inh HTS OD600: 3; rRNA inh HTS RFP: 0.0

How did C[C@H](CO)N1C[C@H](C)[C@@H](CN(C)S(=O)(=O)c2ccc(F)cc2)Oc2ccc(NC(=O)Cc3cn(C)c4ccccc34)cc2C1=O do in these assays?
FGF22 binding: inactive; rRNA inh HTS: -1; ALR inh: -4; Beta cell apopt: 2; MLL AF4-AF9 inh: 0.4; rRNA inh HTS OD600: -10; rRNA inh HTS RFP: -0.1

How did O=C(c1cc(-c2ccc(F)cc2)on1)N1CCCC1 do in these assays?
T cruzi repl: -17; ALR inh: 1; Beta cell apopt: -3; Calb FLC: -8; RanGTP-Impb inh: 0.2

What do the screens show for `Cc1ccccc1NC(=O)C(=O)NC(C)CCc1ccccc1` (centres undefined)?
FGF22 binding: inactive; T cruzi repl: 15; rRNA inh HTS: 12; ALR inh: -7; Beta cell apopt: 0; Calb FLC: -4; RanGTP-Impb inh: -1.7; MLL AF4-AF9 inh: -7.0; rRNA inh HTS OD600: 5; rRNA inh HTS RFP: -1.1

What do the screens show for `CCc1ccc(CN2CC(C(=O)O)CC2=O)cc1` (centres undefined)?
FGF22 binding: inactive; T cruzi repl: -11; ALR inh: -3; Beta cell apopt: -17; Calb FLC: 7; RanGTP-Impb inh: 4.2; MLL AF4-AF9 inh: 7.5

How did O=C(COC(=O)c1cncc(Br)c1)NC1CCCCCC1 do in these assays?
FGF22 binding: inactive; T cruzi repl: 4; rRNA inh HTS: 10; ALR inh: 2; Beta cell apopt: 4; Calb FLC: 2; RanGTP-Impb inh: 2.5; MLL AF4-AF9 inh: -1.4; rRNA inh HTS OD600: 13; rRNA inh HTS RFP: 1.4

How did COc1ccc(Nc2cc(C)nc(N3CCN(C(=O)c4ccc5c(c4)OCO5)CC3)n2)cc1 do in these assays?
FGF22 binding: inactive; T cruzi repl: 8; rRNA inh HTS: 5; ALR inh: -2; Beta cell apopt: 2; Calb FLC: 2; RanGTP-Impb inh: -2.1; MLL AF4-AF9 inh: -1.3; rRNA inh HTS OD600: 9; rRNA inh HTS RFP: -0.4

Results for CC(Cc1cccs1)NC(=S)Nc1ccc(Cl)c(Cl)c1 (centres undefined) ?
FGF22 binding: inactive; T cruzi repl: -11; rRNA inh HTS: -61; ALR inh: 0; Beta cell apopt: -3; Calb FLC: -24; RanGTP-Impb inh: -0.7; MLL AF4-AF9 inh: 1.9; rRNA inh HTS OD600: -82; rRNA inh HTS RFP: -24

What do the screens show for `O=C1COc2ccc(C(=O)C[n+]3cccc(O)c3)cc2N1`?
FGF22 binding: inactive; T cruzi repl: -17; rRNA inh HTS: 10; Beta cell apopt: -5; Calb FLC: -4; RanGTP-Impb inh: 3.1; MLL AF4-AF9 inh: -1.9; rRNA inh HTS OD600: 16; rRNA inh HTS RFP: 12

How did Cc1c(Cl)c(C(F)F)nn1CC(=O)NC1C(=O)N2C(C(=O)O)=C(CSc3nnnn3C)CSC12 (centres undefined) do in these assays?
FGF22 binding: inactive; T cruzi repl: -9; rRNA inh HTS: 17; Calb FLC: 28; RanGTP-Impb inh: 0.2; MLL AF4-AF9 inh: -7.2; rRNA inh HTS OD600: 11; rRNA inh HTS RFP: 0.2

How did O=C(NCC1CCCO1)c1cccc(NC(=O)c2cccs2)c1 (centres undefined) do in these assays?
FGF22 binding: inactive; T cruzi repl: -11; rRNA inh HTS: -1; ALR inh: -23; Beta cell apopt: 2; Calb FLC: 6; RanGTP-Impb inh: 3.3; MLL AF4-AF9 inh: 0.1; rRNA inh HTS OD600: 7; rRNA inh HTS RFP: 2.9

How did CC(=O)c1ccc(NC(=S)N(Cc2ccccc2)C(C)C2CC2)cc1 (centres undefined) do in these assays?
FGF22 binding: inactive; T cruzi repl: -12; rRNA inh HTS: -12; ALR inh: -15; Beta cell apopt: -6; Calb FLC: -29; RanGTP-Impb inh: 6.7; MLL AF4-AF9 inh: 2.0; rRNA inh HTS OD600: -9; rRNA inh HTS RFP: -4.3

What do the screens show for `O=C(NCc1ccccn1)c1cn(-c2ccccc2)nc1-c1ccc(Cl)cc1`?
T cruzi repl: -10; ALR inh: -8; Beta cell apopt: 0; Calb FLC: -4; RanGTP-Impb inh: -0.5

Results for COc1ccc(N(CC(=O)NCCc2cccc(C)c2)S(=O)(=O)c2c(C)noc2C)cc1 ?
T cruzi repl: 4; ALR inh: -3; Beta cell apopt: -2; Calb FLC: 10; RanGTP-Impb inh: 3.6

Results for CCC(CC)C(=O)c1c[nH]c(C(=O)NCc2ccccn2)c1 ?
FGF22 binding: inactive; T cruzi repl: -2; rRNA inh HTS: -2; Beta cell apopt: inconclusive; Calb FLC: 5; RanGTP-Impb inh: 3.0; MLL AF4-AF9 inh: 0.3; rRNA inh HTS OD600: -5; rRNA inh HTS RFP: -3.1

A portion of the library; rates above refer to the full screens.
